BJeLR viability = BJeLR cell viability loss; BJeLR (HRASV12) viability, CellTiter-Glo ATP luminescence, 48 h; reference of the scale not given here; inhibition, % (test concentration not listed); 300,000 tested, 0.17% active; AID 1554;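 active = replicate mean above 50%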;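 also: 50 nL library stock added to about 25 µL; numbers are from one replicate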
ugtP null kill = growth inhibition of S. aureus ugtP deletion strain; growth inhibition, % (no concentration beside the values); S. aureus RN4220 ugtP deletion, OD600 growth, 16 h; some inactives read as strong as hits; 330,000 tested, 0.54% active;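 active = z-score under -3 and OD600 up to 0.15 on both plates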;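 also: plate controls were untreated wells for no effect and antibiotic for full effect; wells of about 80 µL received 100 nL stock; the first replicate is given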
RN4220 kill = kills Staphylococcus aureus RN4220. S. aureus RN4220 growth, OD600, 16 h. inhibition, % (concentration not given with the values). 330,000 tested, 0.33% active. AID 1259311;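 active = z-score of -3 or lower and OD600 up to 0.18 on both plates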;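 also: plate controls were untreated cells for no effect and reference antibiotic for full effect; stock transfer was 100 nL into about 80 µL; one replicate is shown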
Bead autofluor = compound fluorescence in toxin protease inhibitor counterscreen | compound autofluorescence counterscreen, microsphere flow cytometry; stronger effect = higher value | fluorescence intensity (no concentration beside the values) | 360,000 tested, 3.1% active | AID 624483;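 active = at least 3 SD above the mean of all compounds, about 16000 in these data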;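 also: 100 nL of 1 mM stock went into each well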
Mtb hypoxia rep = reduces hypoxia-regulated biosensor signal in M. tuberculosis; fluorescence inhibition, % (concentration not given with the values); M. tuberculosis hypoxia-regulated fluorescent reporter, fluorescence; 300,000 tested, 0.1% active;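 active = 35 to 45% if threefold the growth effect, above 45% if 1.5-fold the growth effect; inactive = the rest, general growth blockers included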;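 also: wells of about 50 µL received 100 nL stock; 0% = vehicle wells and 100% = reference inhibitor wells; whole bacteria with a GFP reporter of the hypoxia response; strong numbers were not always called active; many hits fall short of the cut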
PrP 5UTR inh = inhibition of PrP 5' UTR reporter expression. 340,000 tested, 0.35% active. AID 488862. inhibition, % (concentration not given with the values). cell-based PrP 5' UTR mRNA reporter, plate reader;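 active = every replicate at 50% or more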;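 also: 0 = median of the neutral control wells; tested in H4 reporter cells; numbers are from one replicate; inactives centre near -14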
Mtb hypoxia rep growth = recorded beside Mtb hypoxia rep, whose call it bears; growth inhibition, %; measured here: M. tuberculosis growth (absorbance);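 0% = vehicle and 100% = reference antibiotic; read after six days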
The depositor's hits bear a star; / = no result given.

Sample of the layout, 6 compounds:
SMILES	BJeLR viability	ugtP null kill	RN4220 kill	Bead autofluor	Mtb hypoxia rep	Mtb hypoxia rep growth	PrP 5UTR inh
COc1ccc(/C(N)=N/OC(=O)c2ccc(OC)c([N+](=O)[O-])c2)cc1OC	5.4	5.0	2.1	4973	-2.2	-1.2	-29.3
N#Cc1ccc(NC(=O)COC(=O)CSc2nnc(-c3ccc(Cl)cc3)o2)cc1	9.1	4.9	6.9	2459	-2.9	-3.3	-12.7
C=C(C)C1CC=C(C)C(=NNC(=O)CCc2ccccc2)C1 (stereo unspecified)	/	3.9	2.4	/	10.5	8.8	/
COc1cccc(NC(=O)C2CCC(CNC(=O)[C@@H]3Cc4ccccc4CN3)CC2)c1 (stereo partly specified)	1.6	12.3	2.3	4470	7.1	-2.2	-14.8
O=C(Nc1ncc(Cc2ccccc2)s1)C1CCCO1 (stereo unspecified)	4.3	11.4	7.3	5665	2.8	3.3	-37.1
COc1ccc(-n2cc(-c3ccccc3)c3c(NCCCN4CCOCC4)ncnc32)cc1	12.9	0.3	15.8	4097	4.2	18.2	-16.3

The whole of this part, from the first entry:
SMILES	BJeLR viability	ugtP null kill	RN4220 kill	Bead autofluor	Mtb hypoxia rep	Mtb hypoxia rep growth	PrP 5UTR inh
COc1ccc(/C(N)=N/OC(=O)c2ccc(OC)c([N+](=O)[O-])c2)cc1OC	5.4	5.0	2.1	4973	-2.2	-1.2	-29.3
N#Cc1ccc(NC(=O)COC(=O)CSc2nnc(-c3ccc(Cl)cc3)o2)cc1	9.1	4.9	6.9	2459	-2.9	-3.3	-12.7
C=C(C)C1CC=C(C)C(=NNC(=O)CCc2ccccc2)C1 (stereo unspecified)	/	3.9	2.4	/	10.5	8.8	/
COc1cccc(NC(=O)C2CCC(CNC(=O)[C@@H]3Cc4ccccc4CN3)CC2)c1 (stereo partly specified)	1.6	12.3	2.3	4470	7.1	-2.2	-14.8
O=C(Nc1ncc(Cc2ccccc2)s1)C1CCCO1 (stereo unspecified)	4.3	11.4	7.3	5665	2.8	3.3	-37.1
COc1ccc(-n2cc(-c3ccccc3)c3c(NCCCN4CCOCC4)ncnc32)cc1	12.9	0.3	15.8	4097	4.2	18.2	-16.3
Cc1ccc(S(=O)(=O)N2CCC(=O)CC2c2ccccc2)cc1 (stereo unspecified)	/	-1.7	3.2	4008	-2.8	0.6	56.2*
CN(Cc1nc2ccccc2c(=O)[nH]1)C(=O)c1cc(C2CC2)nn1-c1ccccc1	/	-0.2	-1.2	5341	20.1	10.3	-12.0
C/C(=N\Nc1nc2ccccc2c(=O)n1O)c1ccco1	-1.9	/	/	3984	/	/	-36.3
O=C(C1=C[C@@H](c2csc3ccccc23)C[C@@H](OCCCCO)O1)N1CCN(Cc2ccc3c(c2)OCO3)CC1	-6.2	/	/	3072	/	/	-11.5
COc1ccc(C)cc1NC(=O)NCc1ccco1	5.9	18.0	6.3	4429	8.7	9.0	-22.9
C[n+]1ccccc1/C=C/c1c(F)cccc1F	6.0	5.0	2.4	3395	14.3	5.0	-22.4
CCCCC(C)C(OC(=O)CC(CC(=O)O)C(=O)O)C(CC(C)CC(O)CCCCC(O)CC(O)C(C)N)OC(=O)CC(CC(=O)O)C(=O)O (stereo unspecified)	/	-6.7	-1.6	4145	/	/	-15.7
COc1ccc(C(=O)COC(=O)c2n[nH]c3ccccc23)c(OC)c1	/	-3.4	5.0	6286	-1.4	2.4	-102.0
O=S(=O)(c1cccc(-c2n[nH]c(=S)n2C2CCCC2)c1)N1CCOCC1	5.7	3.1	4.0	4656	6.9	-0.5	-12.3
CC(=O)NC(=S)Nc1ccc2oc(-c3cc(F)c(F)cc3Cl)nc2c1	-6.1	0.5	-1.1	4490	-3.6	-2.3	-49.3
CCN(C1CCCCC1)S(=O)(=O)c1ccc(S(=O)(=O)N2CCN(CCC#N)CC2)cc1	11.4	6.3	2.4	5972	/	/	-12.4
COc1cc(C(=O)NN(CCC#N)C2=NS(=O)(=O)c3ccccc32)cc(OC)c1OC	-6.4	5.3	3.9	4418	5.8	11.4	-24.7
COc1ccc(NC(=O)c2cc(S(=O)(=O)N3CCOCC3)ccc2C)cc1S(=O)(=O)N1CCCCC1	/	9.2	2.2	3883	19.2	39.1	-5.3
COc1ccc(S(=O)(=O)N2CCOCC2)cc1NC(=O)COc1ncnc2ccccc12	2.0	7.6	3.7	2051	10.5	2.3	3.4
Cc1cc(C)n(-c2ccc(C(F)(F)F)cc2[N+](=O)[O-])n1	4.3	11.2	8.9	4314	-8.7	-5.9	-5.4
Cc1ccc(NC(=O)c2nc[nH]c2C(=O)N[C@@H](CCCCNC(=O)OC(C)(C)C)C(=O)OC(C)(C)C)cc1	3.5	/	/	3896	/	/	-2.3
COCCNC(=S)c1ccc(OC)cc1	/	5.1	-2.0	2068	/	/	-22.3
CCC(C)NC(=O)[C@H](CSCc1ccccc1)N1Cc2ccccc2C1=O (stereo partly specified)	-4.4	4.1	1.9	4350	/	/	5.2
COc1cc(/C=C(\C#N)C(=O)Nc2ccc(SC(F)F)cc2)cc(OC)c1OC	-2.0	-1.9	-0.1	8641	2.8	-0.5	-9.2
CCCn1c(N)c(N(CCOC)C(=O)c2ccc(Cl)c([N+](=O)[O-])c2)c(=O)[nH]c1=O	-18.6	0.4	0.1	3903	-9.0	12.1	11.1
CN(C)CCCN1C(=O)c2cccc3c([N+](=O)[O-])ccc(c23)C1=O	/	78.0	19.1	2034	-1.1	0.1	-4.7
COc1ccc(N(CC(=O)NC2CCCC2)C(=O)c2ccc(C)s2)c(OC)c1	-12.7	3.4	0.9	3597	9.7	14.1	-10.9
O=C(NNC(=O)c1ccccc1[N+](=O)[O-])c1cccs1	-4.8	23.9	50.9	4444	16.0	4.4	-4.3
CCOC(=O)[C@]12Cc3cc(OC)ccc3C1N(Cc1ccccc1)C(=O)c1ccccc12 (stereo partly specified)	/	18.2	0.3	/	6.1	4.5	/
COC(=O)c1ccc(NC(=O)COc2ccc(N(C)S(=O)(=O)c3ccc(C)cc3)cc2)cc1	/	-5.6	-5.0	3676	-8.4	-4.5	-15.1
COCCNC(=O)c1cc(C)ccc1C	-0.8	-0.3	-6.5	2814	-10.0	0.5	-23.9
O=C(c1csc2c1CCCC2)N1CCN(c2ccc(F)cc2)CC1	-13.7	6.8	4.3	7075	1.1	0.1	9.0
CCCSc1nnc(NC(=O)Nc2ccccc2OC)s1	2.5	-6.3	6.7	4587	-5.3	7.3	-44.0
COC(=O)c1cccc(OCC(O)Cn2ccnc2)c1 (stereo unspecified)	-2.0	-8.9	0.5	4224	/	/	-13.8
Cc1[nH]c2ccccc2c1N=Nc1cc(C(=O)O)cc(C(=O)O)c1	2.2	2.8	2.0	4470	8.8	3.9	-10.2
COc1ccccc1CN1CCNC(=O)C1CC(=O)NCc1cn(C)nc1C (stereo unspecified)	5.5	4.2	0.5	2297	12.0	6.0	-15.1
Cc1cccc2sc(NC(=O)CSc3nc4ccccc4o3)nc12	-2.2	-7.0	1.1	/	5.4	13.4	-14.3
O=C(NCCNc1ccccc1[N+](=O)[O-])c1ccccc1F	-4.8	2.9	2.9	3464	8.7	-2.0	-36.7
CCOc1ccc(-c2nnc(-c3ccc(OC)cc3)o2)cc1	-1.4	-20.3	4.7	4637	/	/	-28.2
O=C(Nc1ccc(Cl)c(Cl)c1)c1cccnc1	-5.4	-5.1	-4.3	4153	5.9	16.9	-34.8
COc1cc(/C=N/NC(=O)c2ccc(NC(=O)C3CCCCC3)cc2)ccc1O	-1.8	/	/	5865	/	/	-18.6
O=C(CCCSc1ccccc1)Nc1cccc(CO)c1	-4.6	4.9	1.9	6247	6.1	-3.3	-5.2
Cc1cc(C)cc(OCC(=O)N2N=C(C(F)(F)F)CC2(O)C(C)(C)C)c1 (stereo unspecified)	-4.3	-10.8	-2.0	2191	/	/	-19.5
CCOC(=O)/C(C#N)=C\c1cc(OC)c(OC)cc1[N+](=O)[O-]	-8.1	2.2	4.7	2111	11.2	2.1	1.5
O=C1OCCC1Sc1nnc(-c2ccco2)n1-c1ccccc1 (stereo unspecified)	-2.3	7.9	14.1	4015	5.9	3.9	-13.9
COc1cccc(C2CC(=O)Nc3c2c(=O)[nH]c2ncnn32)c1 (stereo unspecified)	-7.3	6.2	7.8	4231	12.8	8.9	-7.9
CC(=O)c1ccc(NC(=S)Nc2ccc3cn[nH]c3c2)cc1	6.6	-3.1	4.9	3783	6.9	3.5	-18.4
COCCn1c(SCC(=O)Nc2ccccc2F)nnc1-c1ccoc1C	-4.7	3.7	4.5	2852	22.7	7.1	-6.7
COc1ccc(C(c2sc3nc(C)nn3c2O)N2CCC3(CC2)OCCO3)cc1 (stereo unspecified)	0.6	-3.5	-1.2	2819	/	/	1.9
O=C(C1CCN(Cc2ccccc2O)CC1)N1CCN(Cc2ccc3c(c2)OCO3)CC1	1.7	11.7	1.7	5750	12.4	6.8	-15.9
O=C(NCCCO)/C(=C/c1ccc(-c2cccc([N+](=O)[O-])c2)o1)NC(=O)c1ccccc1	2.5	-0.4	2.1	4526	1.2	-5.4	-16.0
Cc1[nH]c2ccccc2c1C=NNC(=S)NCc1ccccc1	/	-28.5	-4.0	/	-1.5	-0.6	/
S=C1NCN(Cc2ccccc2)CN1C1CCCCC1	-3.0	3.2	1.8	4075	-4.3	2.4	-11.8
CCOc1ccc(CC(=NCCc2ccccc2)C2=C(O)CC(C)(C)CC2=O)cc1OCC	-15.9	-1.0	-0.3	7893	0.6	12.0	-13.2
CCCN(CCC)c1nc(NC2CCN(C(=O)OCC)CC2)nc(OC)n1	1.6	10.2	-6.0	2089	/	/	-9.6
Cn1c(=S)c2[nH]c(SCCN3CCCC3)nc2n(C)c1=O	-15.1	/	/	2950	/	/	-0.1
O=C(O)Cc1cnc[nH]1	5.7	-0.3	5.3	5255	-5.8	0.8	-20.0
CC(=O)c1cccc(S(=O)(=O)NCC(c2ccco2)N2CCCCC2)c1 (stereo unspecified)	4.0	-2.5	-1.2	16021	0.4	-0.3	3.2
COc1ccccc1NC(=O)CNC(c1ccccc1)c1ccccc1	3.7	19.6	0.9	5219	7.0	11.1	-10.8

The results go on:
SMILES	BJeLR viability	ugtP null kill	RN4220 kill	Bead autofluor	Mtb hypoxia rep	Mtb hypoxia rep growth	PrP 5UTR inh
CC(C)Oc1ccc(CCN=C(N)N=C(N)N)cc1Cl	8.9	0.5	2.4	5501	11.3	6.3	-14.2
CC1CCCC(C)N1C(=O)COC(=O)c1ccc[nH]c1=O (stereo unspecified)	0.9	-2.0	0.6	5166	/	/	3.2
O=C(COC(=O)c1cc(=O)c2ccccc2o1)NCC1CCCCC1	-2.5	7.5	1.1	4103	7.3	6.3	-15.2
CCN1CCN(c2ccc(S(=O)(=O)N3CCOCC3)cc2NC(=O)/C=C/c2ccc([N+](=O)[O-])cc2)CC1	-2.1	-4.5	3.4	5854	-10.8	3.9	-13.6
COc1ccc(OC)c(C2NC(=O)NC(C)=C2C(=O)OCc2ccccc2)c1 (stereo unspecified)	-9.1	3.6	0.2	3154	6.6	-7.4	0.3
Cc1cccc(C(=O)N2CCC(=O)N(C(COCc3ccc(Cl)cc3)Cc3ccccc3)CC2)c1 (stereo unspecified)	-1.9	-0.1	-2.1	3834	0.7	-3.4	-18.7
CCOc1cc(C(=O)Nc2ccc(S(=O)(=O)NC3=NCCCCC3)cc2)cc(OCC)c1OCC	1.5	7.5	-0.9	3243	4.4	6.3	-30.4
COc1ccccc1NC1=NC(C)(C)N=C(N)N1	3.5	-6.9	-0.7	4621	4.3	4.8	-12.7
O=C(C1=C(O)C(=O)N(CC2CCCO2)C1c1ccc(Cl)cc1Cl)c1ccco1 (stereo unspecified)	3.7	-0.6	1.5	3500	-1.1	-1.3	-9.3
O=C(c1cccc(S(=O)(=O)N2CCN(c3ccccc3)CC2)c1)N1CC=C(c2ccccc2)CC1	12.3	3.3	10.3	4643	1.5	-3.9	2.8
CCCC(=O)O[C@]1(C(=O)CO)CC[C@H]2[C@@H]3CCC4=CC(=O)CC[C@]4(C)[C@H]3[C@@H](O)C[C@@]21C	-13.7	/	/	5833	/	/	13.3
Cc1ccc(S(=O)(=O)N2CCCC(C(=O)NC3CCCC3)C2)cc1 (stereo unspecified)	-7.2	4.8	1.6	3365	4.0	1.6	-11.3
O=C1c2ccccc2C(=O)N1/N=C/c1ccc(Oc2ccc([N+](=O)[O-])cn2)cc1	2.5	/	/	3190	/	/	-14.4
